VACV Venus inh = vaccinia inhibition (Venus reporter); Vaccinia virus Venus reporter expression, fluorescence; Potency, µM (highest dose often 36.5 µM), inactives show at the top dose activity change, negative = inhibition, hits mostly inhibitors; 330,000 tested, 0.46% active; AID 720580; active means well fitted inhibition curve with a large enough effect; inconclusive means small, poorly fitted or top-dose-only effect; inactive means no such curve, though single readings can be large or run the other way; tested in A549 cells; further: nearly all actives have a fitted effect of over 30% in size; inactives centre near -10
Vaccinia mCherry = vaccinia inhibition (mCherry reporter). Vaccinia virus mCherry reporter infection, fluorescence; about a quarter of the inactives have no number. Potency, µM (series often up to 36.5 µM), without a hit: top-dose activity change, negative = inhibition, usual class: inhibitors. 310,000 tested, 0.63% active; active = well fitted inhibition curve with a large enough effect; inconclusive = small, poorly fitted or top-dose-only effect; inactive = no such curve, though single readings can be large or run the other way; tested in A549 cells; further: nearly all actives have a fitted effect of over 35% in size; inactives centre near -10
* hit, by the source's call; [ ] = remark or other dose. On the % scale 0 is the no-effect control and ±100 the full control effect; potency means the concentration at half of the fitted maximal effect. Rows are unselected. About 0.87% of those tested had a hit in this group.

Screening CCNC(=O)CC1C(=O)N(c2ccc(F)cc2)C(=O)N1Cc1cccs1 (configuration not stated) returned VACV Venus inh -7.7% and Vaccinia mCherry inactive.
O=C(Nc1ccc2c(c1)OCCO2)C(=S)NCc1ccccc1 was read as VACV Venus inh 3.3% and Vaccinia mCherry inactive.
For O=C(COc1ccccc1Cl)N1CCN(c2ccc([N+](=O)[O-])c(N3CCOCC3)c2)CC1 the results were VACV Venus inh -13.4% and Vaccinia mCherry -6.3%.
Screening CCOC(=O)C1=CCCN(S(=O)(=O)c2ccc(C)cc2)C1 returned VACV Venus inh -10.0% and Vaccinia mCherry inactive.
Cc1cccc(C(=O)NN/C=C/C(=O)c2ccccc2)c1 was read as VACV Venus inh -14.2% and Vaccinia mCherry -11.3%.
For Cc1ccc(CN(C)C(=O)c2ccc(S(=O)(=O)N(C)c3ccccc3)cc2)o1 the results were VACV Venus inh -0.6% and Vaccinia mCherry -7.3%.
For CN(Cc1cccnc1)C(=O)c1cc(COc2ccc3c(c2)CCCC3)on1 the results were VACV Venus inh -28.7% and Vaccinia mCherry -17.4%.
`COc1ccccc1OCCNC(=O)c1ccc(C)c(S(=O)(=O)N2CCOCC2)c1` gave VACV Venus inh -20.4% and Vaccinia mCherry -19.3%.
Screening Cc1cc(C)cc(N(C(=O)C(F)(F)F)C(C(=O)NC2CCCCC2)c2cccs2)c1 (configuration not stated) returned VACV Venus inh -4.2% and Vaccinia mCherry -19.2%.
Screening Cc1ccc(N(C(C)C(=O)Nc2ccc(S(=O)(=O)N3CCOCC3)cc2)S(C)(=O)=O)cc1 (configuration not stated) returned VACV Venus inh -29.4%.
Screening COc1ccc(NC(=O)N(CCC(C)C)C(C)c2ccccn2)c(OC)c1 (configuration not stated) returned VACV Venus inh -24.3% and Vaccinia mCherry -27.9%.
For CN1CC(=O)NC1=NC(=O)c1cc(F)c(F)cc1Cl the results were VACV Venus inh -6.8%.
`COc1cccc(-n2c(SCC(=O)Nc3ccc(F)cc3F)nc3c([nH]c4ccccc43)c2=O)c1` gave VACV Venus inh -15.7% and Vaccinia mCherry -3.8%.
Screening Cc1ccc(CCSc2ccc(F)cc2)cn1 returned VACV Venus inh -1.1% and Vaccinia mCherry inactive.
Screening Cc1ccc(N2C(=O)C3C4CC(=O)C(c5ccccc54)C3C2=O)cc1 (configuration not stated) returned VACV Venus inh -5.8% and Vaccinia mCherry -18.3%.
`CC1CC(C)CN(c2cc(N(C)CCO)c([N+](=O)[O-])c3nonc23)C1` (configuration not stated) gave VACV Venus inh 9.2% and Vaccinia mCherry -15.9%.
Screening COc1cccc(N2CC(C(=O)Nc3ccc(C(=O)OC(C)C)cc3)CC2=O)c1 (configuration not stated) returned VACV Venus inh -20.7% and Vaccinia mCherry -17.5%[1.46 µM].
Cc1nc([N+](=O)[O-])cn1CCC#N was read as VACV Venus inh 1.1% and Vaccinia mCherry inactive.
Screening O=C(O)c1cc(=O)c2cc(Cl)ccc2o1 returned VACV Venus inh -15.5%.
CCOC(=O)c1cccc(NC(=O)CSc2nnc(-c3ccoc3C)n2CCOC)c1 was read as VACV Venus inh -20.3% and Vaccinia mCherry inconclusive.
CC(=O)NC12CC3CC(C1)CC(C(=O)Nc1nc4ccc(S(C)(=O)=O)cc4s1)(C3)C2 was read as VACV Venus inh -13.0% and Vaccinia mCherry -18.3%.
Screening CCN(CC(=O)Nc1ccccc1C(F)(F)F)C(=O)CCS(=O)(=O)c1ccc(C)cc1 returned VACV Venus inh -20.6% and Vaccinia mCherry -12.7%.
Screening Cc1ccc(C2CC(=O)N(Cc3ccccc3F)c3c2c(C)nn3-c2nc(C)cc(C)n2)cc1 (configuration not stated) returned VACV Venus inh -4.9% and Vaccinia mCherry -14.4%.
For CCOC(=O)C1=C(C)N=C2SC(C)C(=O)N2C1c1ccc(C(=O)OC)cc1 (configuration not stated) the results were VACV Venus inh -5.0% and Vaccinia mCherry -14.7%.
For COc1ccc([C@H]2C[C@H](n3cc(C4CC4)nn3)[C@@H](O)CN2CC2CCCCC2)cc1 the results were VACV Venus inh -20.0% and Vaccinia mCherry inactive.
Screening OCCC1CN(Cc2cccn2-c2ncccn2)CCN1Cc1ccccc1 (configuration not stated) returned VACV Venus inh -13.1% and Vaccinia mCherry -11.2%.
For COc1cc2ccccc2nn1 the results were VACV Venus inh -1.8% and Vaccinia mCherry inactive.
Screening Cc1cn([C@H]2C[C@H](O)[C@@H](/C=C/C(=O)NCc3ccco3)O2)c(=O)[nH]c1=O returned VACV Venus inh -0.7% and Vaccinia mCherry 24.8%.
For CCC(C)NC(=O)CN(c1cc(Cl)ccc1OC)S(C)(=O)=O (configuration not stated) the results were VACV Venus inh -3.9% and Vaccinia mCherry -13.4%.
`COc1ccccc1N1Cc2ccc(OC)c(OC)c2C1=O` gave VACV Venus inh -6.5% and Vaccinia mCherry -6.5%.
`CCOC(=O)c1sc(N2C(=O)C(O)=C(C(=O)c3ccco3)C2c2cccc([N+](=O)[O-])c2)nc1C` (configuration not stated) gave VACV Venus inh -18.9% and Vaccinia mCherry inactive.
COCC(C)NC(=O)Cc1ccc(Cl)cc1 (configuration not stated) was read as VACV Venus inh -1.1% and Vaccinia mCherry -4.3%.
Cc1onc(-c2ccccc2Cl)c1C(=O)NCCN1CCOCC1 was read as VACV Venus inh -8.9%.
Screening CCCC(C)c1oc(=O)cc(O)c1C (configuration not stated) returned VACV Venus inh 2.4% and Vaccinia mCherry inactive.
`COCCOC(=O)C1=C(C)NC(=S)NC1c1cccs1` (configuration not stated) gave VACV Venus inh 2.9% and Vaccinia mCherry -3.0%.
CC(C)Oc1ccc(CNC(=O)c2ccc(CN3CC(=O)N4CCCCC4C3=O)cc2)cc1 (configuration not stated) was read as VACV Venus inh 2.5% and Vaccinia mCherry 1.9%.
COc1ccc(/C=C2/SC(c3ccc(C)cc3)=NC2=O)cc1OC was read as VACV Venus inh -9.3%.
Screening c1cnc(-c2noc(CN3CCN(C4CCCC4)CC3)n2)cn1 returned VACV Venus inh -3.9% and Vaccinia mCherry -5.4%.
Screening O=C(CN(C(=O)CNS(=O)(=O)c1ccccc1)c1ccc(F)cc1)NCc1ccco1 returned VACV Venus inh 5.8% and Vaccinia mCherry 9.1%.
Screening CC1CCN(C(=O)CSc2ccc(-c3ccc4c(c3)OCCO4)nn2)CC1 returned VACV Venus inh -2.7% and Vaccinia mCherry -6.7%.
CC(=O)Nc1ccc(S(=O)(=O)Nc2cccc3cccnc23)cc1 was read as VACV Venus inh -1.5% and Vaccinia mCherry -1.3%.
O=C(O)C1CCCN1C(=O)Nc1ccc(Cl)cc1 (configuration not stated) was read as VACV Venus inh -7.8% and Vaccinia mCherry inactive.
`Cc1cc(C)c(NC(=O)Cn2c(=O)n(CCCCC(=O)NCc3ccccc3Cl)c(=O)c3ccccc32)c(C)c1` gave VACV Venus inh -22.0% and Vaccinia mCherry -21.7%.
For CCOc1cc(C2C3=C(CCCC3=O)OC3=C2C(=O)CCC3)cc([N+](=O)[O-])c1O the results were VACV Venus inh -10.4% and Vaccinia mCherry inactive.
For CCSc1sccc1C1C(C#N)=C(N)N(c2cccnc2)C2=C1C(=O)CC(C)(C)C2 (configuration not stated) the results were VACV Venus inh -7.8% and Vaccinia mCherry -13.3%.
`CCOc1cc(NS(=O)(=O)c2ccc(OC)cc2)c(OCC)cc1NC(C)=O` gave VACV Venus inh -9.0% and Vaccinia mCherry -13.5%.
For COCCNC(=O)CN1C(=O)c2cccc3cccc1c23 the results were VACV Venus inh -2.4% and Vaccinia mCherry -4.8%.
For CCN1CCN(CCNC(=O)c2ccc(/C=C3/Sc4ccccc4N(Cc4cccc(Cl)c4)C3=O)cc2)CC1 the results were VACV Venus inh inconclusive and Vaccinia mCherry -21.9%.
Screening COc1ccc2[nH]c(C)c(C(=O)CN(C)CC3OCCO3)c2c1 returned VACV Venus inh 4.1% and Vaccinia mCherry -15.7%.
For Cc1cc(C)c2[nH]c(=O)c(CN(Cc3ccco3)C(=O)C3CCCO3)cc2c1 (configuration not stated) the results were VACV Venus inh -10.3%.
Screening O=C(CCC1N=C2c3ccccc3N=C(SCC(=O)Nc3ccccc3F)N2C1=O)NCc1ccco1 (configuration not stated) returned VACV Venus inh -10.2% and Vaccinia mCherry 5.5%.
Cc1cc(Cl)ccc1NC(=O)CN1C(=O)COc2ccc(S(=O)(=O)N3CCC(C)CC3)cc21 was read as VACV Venus inh -15.8% and Vaccinia mCherry -20.6%.
For Cc1c(C)c(C)c(S(=O)(=O)NCCc2ccccn2)c(C)c1C the results were VACV Venus inh -14.5% and Vaccinia mCherry -29.8%.
`CC(Cl)C(=O)Nc1cc(C(C)(C)C)nn1-c1ccccc1` (configuration not stated) gave VACV Venus inh -3.4% and Vaccinia mCherry inactive.
For COc1ccc(CNC(=O)CCc2c(C)nc3cc(-c4ccc(OC)cc4OC)nn3c2C)cc1 the results were VACV Venus inh -9.6% and Vaccinia mCherry -10.7%.
`COc1ccc(NC(=O)C(c2ccncc2)n2c(=O)c(-c3ccco3)nc3ccccc32)cc1` (configuration not stated) gave VACV Venus inh 9.4% and Vaccinia mCherry inconclusive.
`CC(=O)c1ccc(S(=O)(=O)N2CCN(C(=O)c3ccc(COc4ccccc4)o3)CC2)cc1` gave VACV Venus inh inconclusive and Vaccinia mCherry -20.4%.
For Cc1cc(C)cc(NC(=O)Cn2nnc(C(=O)NCCc3ccccc3)c2N)c1 the results were VACV Venus inh 4.5%[7.34 µM] and Vaccinia mCherry -10.7%[7.34 µM].
Screening O=C(c1ccccc1)c1ccccc1N1C(=O)C=CC1=O returned VACV Venus inh -18.8% and Vaccinia mCherry -20.3%.
Screening Clc1ccc(CNc2ccc(CNc3ncn[nH]3)cc2)c(Cl)c1 returned VACV Venus inh -28.4% and Vaccinia mCherry inconclusive.
CC1CCCCC1NC(=O)CSc1ccc([N+](=O)[O-])cc1 (configuration not stated) was read as VACV Venus inh -6.2% and Vaccinia mCherry -5.9%.
Cc1ccc(S(=O)(=O)N2CCN(c3ccc(N4CCOCC4)nn3)CC2)cc1[N+](=O)[O-] was read as VACV Venus inh -7.5% and Vaccinia mCherry -14.5%.
CC12CCC(=O)N1C(C(=O)NCc1ccccc1Cl)CS2 (configuration not stated) was read as VACV Venus inh -6.0% and Vaccinia mCherry -8.5%.
Screening COC(=O)C1=C(C)NC(C)=C(C(=O)OC)C1C(=O)OCC(=O)N1CCCCC1C (configuration not stated) returned VACV Venus inh -14.9% and Vaccinia mCherry -0.2%.
CCN(CC)NC(=O)Nc1ccccc1 was read as VACV Venus inh -8.7% and Vaccinia mCherry -1.9%.
`C=C(C)Cn1c(CCn2c3ccccc3c3ccccc32)n[nH]c1=S` gave VACV Venus inh -15.5% and Vaccinia mCherry -26.4%.
Screening Oc1c(C(Nc2ccccn2)c2ccccn2)ccc2cccnc12 (configuration not stated) returned VACV Venus inh 10µM* and Vaccinia mCherry inconclusive.
Screening CC(C)Oc1ccc(C(=O)N(Cc2ccco2)Cc2cccs2)cc1 returned VACV Venus inh -8.2% and Vaccinia mCherry -0.1%.
For COc1ccccc1-c1cn(CC[C@@H]2CC[C@H](NC(=O)C3CCC3)[C@@H](CO)O2)nn1 the results were VACV Venus inh -20.2% and Vaccinia mCherry -15.2%.
Cc1cc2c(cc1S(=O)(=O)N1CCN(c3cccc(C)c3C)CC1)OCCN2C was read as VACV Venus inh -3.6% and Vaccinia mCherry -1.9%.

Filtered by structure, the compounds so far containing an NH in an aromatic ring (6)
`COc1cccc(-n2c(SCC(=O)Nc3ccc(F)cc3F)nc3c([nH]c4ccccc43)c2=O)c1` gave VACV Venus inh -15.7% and Vaccinia mCherry -3.8%.
Screening Cc1cn([C@H]2C[C@H](O)[C@@H](/C=C/C(=O)NCc3ccco3)O2)c(=O)[nH]c1=O returned VACV Venus inh -0.7% and Vaccinia mCherry 24.8%.
Screening COc1ccc2[nH]c(C)c(C(=O)CN(C)CC3OCCO3)c2c1 returned VACV Venus inh 4.1% and Vaccinia mCherry -15.7%.
For Cc1cc(C)c2[nH]c(=O)c(CN(Cc3ccco3)C(=O)C3CCCO3)cc2c1 (configuration not stated) the results were VACV Venus inh -10.3%.
Screening Clc1ccc(CNc2ccc(CNc3ncn[nH]3)cc2)c(Cl)c1 returned VACV Venus inh -28.4% and Vaccinia mCherry inconclusive.
`C=C(C)Cn1c(CCn2c3ccccc3c3ccccc32)n[nH]c1=S` gave VACV Venus inh -15.5% and Vaccinia mCherry -26.4%.

Other compounds follow:
`CCc1cccc2c(C(=O)CSc3nncn3C)c[nH]c12` gave VACV Venus inh -1.1% and Vaccinia mCherry 0.4%.
`CCN1C(=O)/C(=C\N2CCN(C(=O)c3ccco3)CC2)SC1=S` gave VACV Venus inh 4.8% and Vaccinia mCherry inactive.
`O=C(Nc1ccc(Cl)c(S(=O)(=O)N2CCCC2)c1)c1nn(CCO)c(=O)c2ccccc12` gave VACV Venus inh inconclusive and Vaccinia mCherry -11.0%.
CC1(C(=O)NS(=O)(=O)c2ccc3c(c2)CCO3)CCN1C(=O)c1ccccc1CCc1ccccc1 (configuration not stated) was read as VACV Venus inh -0.1% and Vaccinia mCherry inactive.
Cc1cc(NC(=O)/C=C/c2ccc(Cl)cc2)no1 was read as VACV Venus inh -12.0% and Vaccinia mCherry -12.5%.
`CSc1ccc(S(=O)(=O)NCC(=O)OCC(=O)NCC2CCCO2)cc1[N+](=O)[O-]` (configuration not stated) gave VACV Venus inh -6.9% and Vaccinia mCherry -0.5%.
Screening Cc1ccc(S(=O)(=O)N(C)c2ccc(C(=O)Nc3ccccc3C(=O)N3CCOCC3)cc2)cc1 returned VACV Venus inh -14.6% and Vaccinia mCherry -13.7%.

From PubChem BioAssay
